Compound activity deposited in PubChem by National Center for Advancing Translational Sciences (NCATS).
HPGD block = qHTS Assay for Inhibitors of HPGD (15-Hydroxyprostaglandin Dehydrogenase); AID 894, 2007; 15-hydroxyprostaglandin dehydrogenase [NAD(+)] (Homo sapiens), P15428; Potency, µM, for the others: at the top dose activity change, negative = inhibition, usual class: inhibitors; purified HPGD, NADH fluorescence kinetic, PGE2 substrate; 150,000 tested, 4.3% active; active = well fitted inhibition curve with a large enough effect (not every such curve was filed as active); inconclusive = small, poorly fitted or top-dose-only effect, or another doubt; inactive = no such curve, though single readings can be large or run the other way;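 also: top concentration of the series not given in the record; plate controls included wells without enzyme; inactives centre near -10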
Target sequence (P15428 whole entry, looked up): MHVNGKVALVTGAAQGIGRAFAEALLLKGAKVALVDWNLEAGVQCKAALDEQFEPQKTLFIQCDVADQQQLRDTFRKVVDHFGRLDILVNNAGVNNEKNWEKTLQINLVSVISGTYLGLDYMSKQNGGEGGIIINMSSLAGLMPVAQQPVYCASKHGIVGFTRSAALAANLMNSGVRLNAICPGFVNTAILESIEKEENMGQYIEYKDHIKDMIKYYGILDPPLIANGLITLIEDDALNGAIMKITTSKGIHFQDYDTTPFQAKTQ
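20 nM HPGD preincubated 15 min at room temperature with compound in 50 mM Tris-HCl pH 8, 0.01% Tween 20. Started with 1 mM NAD+ and 30 uM prostaglandin E2; NADH fluorescence (360/450 nm) read 5 times over 30-s intervals, last minus first.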
Active calls of the source: *; u = inconclusive. % is scaled to controls: 0 for no effect and ±100 for the full control effect; potency is read from the fitted curve at half-maximal effect.

#	Structure	HPGD block
1	C[C@]12C[C@H](O)C3[C@@H](CCC4=CC(=O)CC[C@@]43C)[C@@H]1CC[C@@H]2C(=O)CO (stereo partly specified)	-1%
2	CCOC(=O)c1cnc(SC2CC(=O)N(c3ccc(C)cc3)C2=O)nc1N (stereo unspecified)	-3%
3	Cc1ccccc1C(=O)N1CCC(C(=O)Nc2cccc(F)c2)CC1	-2%
4	CCOCCCNC(=O)c1ccc(CS(=O)(=O)Cc2cccc(C)c2)o1	-9%
5	COc1ccc(/C=C\C(=O)NCc2ccc3[nH]c(C)cc3c2)cc1OC	u
6	O=S(=O)(CCSc1nc2ccccc2o1)Cc1ccccc1	-14%
7	Cc1cccc(Nc2nnc(SCC(=O)Nc3cccnc3Cl)s2)c1	-20%
8	CCOCCCNC(=O)C(NC(=O)CNC(=O)c1ccccc1)c1ccc(C)cc1 (stereo unspecified)	-6%
9	CCCCn1c(=O)cc(N2CCOCC2)[nH]c1=O	-1%
10	CCOC(=O)c1sc(NC(=O)c2ccc(Cl)s2)cc1C	u
11	Cc1cc(C)cc(OCc2nnc(SCC(=O)OC(C)C)o2)c1	-22%
12	N=C1S/C(=C\c2ccc(-c3cccc(Cl)c3)o2)C(=O)N1c1nccs1	u

Continuation:
#	Structure	HPGD block
13	Cc1ccc(C(=O)Oc2oc(-c3ccco3)nc2C=Nc2ccccc2)cc1	7.1µM*
14	COc1ccc(CN2C3CCCC2CC(NC(=O)Nc2ccccc2)C3)cc1 (stereo unspecified)	-11%
15	Cc1cccc(C)c1-n1c(SCC(=O)N2CC(=O)Nc3ccccc32)nc2ccccc2c1=O	-6%
16	CC(C)c1ccccc1NC(=O)CCCC(=O)O	-4%
17	Cc1nn(-c2ccccc2)c(Cl)c1/C=N\NC(=O)c1cnccn1	-10%
18	COc1ccc(-n2nc(C(=O)N3CCN(Cc4ccc5c(c4)OCO5)CC3)c3ccccc3c2=O)cc1	-5%
19	O=C(COc1ccc2ccccc2c1)N1CCN(C(=O)c2cccs2)CC1	2%
20	CCN(CC)S(=O)(=O)c1ccc2c(c1)C(=NO)c1cc(S(=O)(=O)N(CC)CC)ccc1-2	4%
21	Cc1nn(-c2c(Cl)cc(Cl)cc2Cl)c(=O)c2ccccc12	13µM*
22	CCOC(=O)C1=NN(c2ccccc2)C2(S1)SC(C(C)=O)=C(C)N2c1ccccc1 (stereo unspecified)	-7%
23	CC1CC(=O)c2cnc(Nc3ccccc3)nc2C1 (stereo unspecified)	u
24	O=C(Cc1sc(-c2ccccc2)nc1-c1ccccc1)Nc1ccccc1	-18%

The listing continues.
#	Structure	HPGD block
25	CCOC(=O)c1c(NC(=O)/C=C/c2ccc3c(c2)OCO3)sc(C)c1CC	-8%
26	CC(=O)c1ccccn1	-9%
27	Cc1ccc(C)c(N(CC(=O)NC2CCCC2)C(=O)CCCC(=O)Nc2ccccn2)c1	0%
28	Cc1occc1-c1nnc(SCC(=O)Nc2ccc(F)cc2)n1Cc1ccccc1	-16%
29	N#CC1=C(N)N(c2ccccc2)C(=O)C1	-14%
30	Cc1nn(Cc2ccccc2)c(N)c1-c1ccccc1	-25%
31	COc1ccc(CSc2nnc(N)s2)cc1F	-21%
32	O=C(O)CC(C(=O)O)C(CC(=O)O)C(=O)O (stereo unspecified)	-5%
33	CCOC(=O)C1=C(C)NC(SCC(=O)Nc2nc(C)cs2)=C(C#N)C1c1cccs1 (stereo unspecified)	-27%
34	O=C(NCN1C(=O)C2C3C=CC(C3)C2C1=O)Nc1nccs1 (stereo unspecified)	-5%
35	CCCCNC(=O)c1cc2nc3c(c(C(F)(F)F)n2n1)CCc1ccccc1-3	u
36	O=C(c1csc2ccccc12)N1CCN(c2ccccn2)CC1	-14%

Next records follow.
#	Structure	HPGD block
37	CC(C)CC(NC(=O)C1CCC(C)CC1)C(=O)NCc1cccnc1 (stereo unspecified)	-3%
38	COc1cccc(-c2nc(N3CCCCC3C)c3ccccc3n2)c1O (stereo unspecified)	-16%
39	Cn1nnc(NC(=O)C(c2ccccc2)c2ccccc2)n1	-14%
40	CCOc1ccc2[nH]c(=O)c(CN(Cc3ccco3)C(CC)c3nnnn3Cc3ccccc3)cc2c1 (stereo unspecified)	u
41	O=C(c1cc(C(F)(F)F)cc(C(F)(F)F)c1)N1CCC[C@@]2(CCN(c3ncccn3)C2)C1	-3%
42	CC(C)(C)C(=O)COC(=O)c1ccccc1O	-19%
43	O=C(COC(=O)c1ccc(Cl)c(S(=O)(=O)N2CCc3ccccc3C2)c1)Nc1ncc(Cl)cc1Cl	-12%
44	Cn1c(=O)n(C)c2cc([N+](=O)[O-])c(N3CCN(C(=O)c4ccccc4Cl)CC3)cc21	-3%
45	Cc1cccc(-c2nsc(SCC(=O)NCc3ccco3)n2)c1	u
46	Cn1nc(C(F)(F)F)c(/C=N/OC(=O)c2ccccc2)c1Cl	0%
47	O=C(Nc1ccccc1N1CCN(C(=O)c2ccc(Cl)cc2)CC1)c1cc2ccccc2o1	u
48	CC(C)c1ccc(C2C3=C(CC(C)(C)CC3=O)NC3=C2C(=O)c2ccccc23)cc1 (stereo unspecified)	-12%

Records listed above that bear a hit mark in HPGD block:
#	Structure	HPGD block
13	Cc1ccc(C(=O)Oc2oc(-c3ccco3)nc2C=Nc2ccccc2)cc1	7.1µM*
21	Cc1nn(-c2c(Cl)cc(Cl)cc2Cl)c(=O)c2ccccc12	13µM*

(further entries)
#	Structure	HPGD block
49	COCCCNC(=O)c1ccc(Cn2c(=O)c3ccccc3n(Cc3ccccc3C#N)c2=O)cc1	-22%
50	CCC(=O)N(Cc1ccc(S(N)(=O)=O)cc1)C1CC(=O)N(c2ccc(OC)cc2)C1=O (stereo unspecified)	-10%
51	C=CCN1C(=O)NC2(O)C(=O)c3ccccc3C12O (stereo unspecified)	-2%
52	O=c1cc(N2CCN(c3ccc(F)cc3)CC2)[nH]c(=O)n1Cc1ccc(F)cc1	-3%
53	COc1ccc(NC(=O)N2CC[C@@]3(CCCN(C(=O)c4cccc(F)c4)C3)C2)cc1	-10%
54	CCOC(=O)CCc1c(C)n(CC)c2ncnn2c1=O	-7%
55	CCOc1ccc(NC(=O)CSCC(=O)O)cc1	-6%
56	O=C(Nc1ccccc1)Nc1nnc(CSCc2ccccc2Cl)s1	-3%
57	COc1ccc(S(=O)(=O)N2CCN(Cc3ccc(Cl)cc3)CC2)cc1	-4%
58	CC(NC(=O)NC1CCCCC1)C(c1cccs1)N1CCOCC1 (stereo unspecified)	-5%
59	O=C(Nc1ccc(F)cc1F)c1sccc1SCc1cccc(C(F)(F)F)c1	-15%
60	C=CCn1c(SCc2ccc(F)cc2)nc2c1c(=O)[nH]c(=O)n2C	-6%

Next part:
#	Structure	HPGD block
61	Cn1c(=O)c(=O)n(C)c2cc(S(=O)(=O)N3CCCCC3)ccc21	-14%
62	CCOc1nc(-c2ccncc2)nc2ccccc12	2%
63	COc1cc(-c2csc(N3CCOCC3)n2)cc(OC)c1OC	-11%
64	CCC(=O)Nc1cc(NC(=O)CSc2nnc(C(C)C)n2CC)ccc1C	-7%
65	Cc1ccc(SCC(=O)N(Cc2nc(-c3ccccc3)no2)C(C)C)cc1	5%
66	CCc1ccc(C(=O)Cn2ncc(Cl)c(Cl)c2=O)cc1	-2%
67	O=c1cnn([C@@H]2O[C@H](CO)[C@@H](O)[C@H]2O)c(=O)[nH]1	1%
68	CN(NC(=S)Nc1ccc(OC(F)F)cc1)C(=S)Nc1ccc(OC(F)F)cc1	18µM*
69	O=C(NCCCn1ccnc1)C(=O)NCC1OCCCN1S(=O)(=O)c1ccc(Cl)cc1 (stereo unspecified)	-6%
70	COc1ccc(/C=N/c2oc(-c3ccccc3)cc2C#N)cc1	u
71	Cc1ccc(-c2nc3ccccc3c(=O)n2Cc2ccccc2)cc1	-3%
72	CCN(CC)S(=O)(=O)c1ccc(N2CCCCC2)c(NC(=O)/C(C#N)=C/c2ccc(OC)cc2)c1	-18%

The list continues.
#	Structure	HPGD block
73	CCOc1ccc(Nc2nc(Cc3nnc(SCC(=O)NC4CCCC4)n3C)cs2)cc1	-10%
74	O=C1CC(c2cccnc2)c2cc3c(cc2N1)OCCO3 (stereo unspecified)	-21%
75	COc1ccc(C(=O)Nc2ccc(NC(=O)c3cccs3)cc2)cc1[N+](=O)[O-]	-7%
76	Nc1cccc(S(=O)(=O)O)c1	-11%
77	CC1(C)CN=C(NC2CCCCC2)S1	-7%
78	COc1cccc(-c2cc(C(=O)Nc3ccc(OC)c(OC)c3)no2)c1	-12%
79	CONc1nc2nonc2nc1NOC	-6%
80	CC1C(=O)N(c2ccc(S(=O)(=O)N(C)C)cc2)C1(/C=C/c1ccccc1)C(=O)NC1CCCC1 (stereo unspecified)	-14%
81	CC(=O)NCCNC(=O)CNC(=O)c1ccc(Cl)cc1	-5%
82	CN(C(=O)c1ccncc1)c1nnc(-c2cnccn2)s1	-3%
83	O=C(COC(=O)c1c2c(nc3ccccc13)CCCCC2)c1ccc(Cl)s1	-8%
84	CCn1c(=O)c(C(=O)Nc2cnccn2)c(O)c2ccccc21	-16%

The results go on.
#	Structure	HPGD block
85	COc1cccc(CN2CCC(C(=O)N3CCN(c4ccccc4F)CC3)CC2)c1OC	10%
86	O=C(Cc1cn2ccsc2n1)NCc1ccccc1	u
87	O=[N+]([O-])c1cc(C(F)(F)F)ccc1Sc1nccn1Cc1ccccc1	-8%
88	COc1ccc(NC(=O)c2cc(Cl)ccc2Cl)c([N+](=O)[O-])c1	-12%
89	Cc1cccc(C)c1NC(=O)CSc1ncnc2nc[nH]c12	-11%
90	O=C(Nc1cccnc1)c1cccc(F)c1	-20%
91	COc1ccc(Cl)cc1NC(=O)Cn1nc(-c2ccc(C)cc2)n(C)c1=S	0%
92	Cc1ccc(S(=O)(=O)Nc2cccc3cccnc23)cc1	-26%
93	CCOC(=O)C1CCN(Cc2cnc(Oc3ccc(N)cc3)s2)CC1	-14%
94	COc1ccc(NC(=O)CCSc2ccc(C)cc2)cc1	2%
95	COC(=O)c1oc2ccc(Cl)cc2c1N	u
96	O=C(NCc1ccc2c(c1)OCO2)O[C@@H]1C(=O)c2cc(Br)ccc2O[C@H]1c1ccc2c(c1)OCO2	-10%

Going on with the list:
#	Structure	HPGD block
97	CCN(C(=O)c1ccc(S(C)(=O)=O)cc1)C12CC3CC(CC(C3)C1)C2	-1%
98	COC(=O)C1CCCN1C(=O)COc1ccc(Cl)cc1Br (stereo unspecified)	-12%
99	O=C(Nc1ccccc1)NC1CCCCC1	-28%
100	Cc1cccc2cc(COC(=O)c3ccccn3)c(=O)[nH]c12	-12%
101	O=C(CSc1nnc(-c2cnccn2)n1Cc1ccco1)c1ccc(Cl)c(Cl)c1	-11%
102	O=C(CSc1nncs1)Nc1ccc2c(c1)OCCO2	-17%
103	O=C(Cn1[nH]c(=O)c2ccccc2c1=O)NC1CCCCCC1	-2%
104	CN1CCN(C(CNS(=O)(=O)c2ccc(F)cc2)c2cccnc2)CC1 (stereo unspecified)	-10%
105	Cc1noc(C)c1CSc1ccccc1C(=O)Nc1nccs1	-12%
106	O=C(Nc1ccc(Cl)cc1C(=O)NCc1cccnc1)c1ccco1	1%
107	O=C(c1cnccn1)N1CCc2ccccc21	-20%
108	O=C(NCCSCc1c(F)cccc1Cl)c1ccco1	5µM*

Shown with each value named: entries from further up
#61 Cn1c(=O)c(=O)n(C)c2cc(S(=O)(=O)N3CCCCC3)ccc21
  HPGD block: -14%

#62 CCOc1nc(-c2ccncc2)nc2ccccc12
  HPGD block: 2%

#63 COc1cc(-c2csc(N3CCOCC3)n2)cc(OC)c1OC
  HPGD block: -11%

#64 CCC(=O)Nc1cc(NC(=O)CSc2nnc(C(C)C)n2CC)ccc1C
  HPGD block: -7%

The list goes on:
#	Structure	HPGD block
109	CC(NC(=O)CCNC(=O)c1ccccc1Cl)C1CC2CCC1C2 (stereo unspecified)	-13%
110	Cc1cc(/C=N/n2cnnc2)c(C)n1-c1cccc(C(=O)O)c1	u
111	CCN1C(=O)/C(=C2/C=Cc3cc(C)ccc3N2CC)N(C)C1=S	-1%
112	COc1ccc([N+](=O)[O-])cc1-n1cccc1	-3%
113	Cc1ccc(-n2nnnc2Sc2nc([N+](=O)[O-])nn2C)cc1	-8%
114	CCOc1ccc(N2CC(=O)SC2=S)cc1	-1%
115	CCOC(=O)N1CCN(c2ccc(S(=O)(=O)N(Cc3ccccc3)Cc3ccccc3)cn2)CC1	-14%
116	CNC1C(O)C(O)C(CO)O[C@H]1OC1C(O[C@@H]2C(O)C(O)[C@@H](N=C(N)N)C(O)C2N=C(N)N)OC(C)[C@]1(O)C=O (stereo partly specified)	-7%
117	CCOC(=O)C1CCCN(C(=O)CCCOc2cc(=O)n(C)c3ccccc23)C1 (stereo unspecified)	-12%
118	CCSc1nnc(NC(=O)C(C)Sc2nc3ccccc3[nH]2)s1 (stereo unspecified)	-12%
119	COc1ccc2c(c1OC)C(=O)N1c3ccccc3C(=O)N(c3ccc(F)cc3)C21 (stereo unspecified)	-16%
120	Cc1cc(F)ccc1S(=O)(=O)N1CCCOC1CNC(=O)C(=O)NCCC1=CCCCC1 (stereo unspecified)	-6%

(cont.)
#	Structure	HPGD block
121	Cc1cc(N2CCCCC2)nc2ccc(Cc3ccc4nc(N5CCCCC5)cc(C)c4c3)cc12	u
122	Cc1cccc(N2C(=O)CS/C2=N\NC(=O)c2ccc(Cl)cc2)c1C	-2%
123	CC(C)CN(C#N)c1nc(N2CCOCC2)nc(N2CCOCC2)n1	-11%
124	Cc1ccc(-c2cc(C(=O)Nc3cc(C)on3)c3ccccc3n2)c(C)c1	-10%
125	COc1ccc(-c2cn3cc(C)ccc3n2)cc1OC	u
126	CCc1cccc(OCCCCNCCCOC)c1	7%

A portion of the library; the hit share may differ from the screen's.
